# LASV entry inh: Lassa virus entry inhibition. 1.2% of 300,000 active. Potency, µM (titrated, usually from 37.9 µM), for inactives: at the top dose activity change, negative = inhibition, actives largely listed as inhibitors. AID 540256. Lassa virus pseudotype entry inhibition, cell reporter; control for the full effect not named in the record; active means well fitted inhibition curve with a large enough effect; inconclusive means small, poorly fitted or top-dose-only effect, or effect the other way; inactive means flat fitted curve, though single readings scatter; tested in HEK293 cells; further: on the % scale 0 is the no-effect control and ±100 the full control effect; nearly all actives have a fitted effect of over 50% in size; luciferase read-out
# Cruzain inh Det: blocks cruzain activity in presence of Triton detergent; P25779; purified cruzain, Z-FR-AMC fluorescence, 0.01% Triton; Potency, µM, for the others: max response, negative = inhibition, most hits filed as inhibitors; 0.43% of 200,000 active; AID 1478; active means well fitted curve in the direction sought with a large enough effect; inconclusive means small, poorly fitted or top-dose-only effect, or another doubt; inactive means no such curve, though single readings can be large; an effect the other way counts as inactive or inconclusive;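 further: plate controls were neutral wells for no effect and buffer without enzyme for full effect; nearly all actives have a fitted effect of over 40% in size; top concentration of the series not given in the record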
# Target sequence (P25779 123-467 limits assumed): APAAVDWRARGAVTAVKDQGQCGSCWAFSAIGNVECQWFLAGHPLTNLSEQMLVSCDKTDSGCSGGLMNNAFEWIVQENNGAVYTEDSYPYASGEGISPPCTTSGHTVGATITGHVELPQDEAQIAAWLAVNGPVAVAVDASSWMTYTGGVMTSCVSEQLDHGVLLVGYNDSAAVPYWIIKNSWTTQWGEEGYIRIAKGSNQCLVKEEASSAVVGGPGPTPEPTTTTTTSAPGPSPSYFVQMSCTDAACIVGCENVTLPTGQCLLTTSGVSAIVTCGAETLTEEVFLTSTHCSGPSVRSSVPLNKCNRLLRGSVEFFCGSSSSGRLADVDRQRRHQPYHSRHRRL
#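 Compounds were screened in titration against cruzain (1.5 nM) with 0.01% Triton X-100 to counter colloidal aggregation. Activity was the AMC fluorescence increase over 60 s after adding 2 uM Z-FR-AMC at pH 5.5.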
# StopGo reporter: FMDV 2A StopGo reporter, luciferase signal; 1.2% of 410,000 active; human cells with a luciferase reporter of 2A StopGo recoding; control for the full effect not named in the record; Potency, µM (highest dose often 57.9 µM), for inactives: at the highest dose signal change, negative = less light; active = well fitted falling curve with a large enough effect; inconclusive = small, poorly fitted or top-dose-only effect; inactive = no such curve, though single readings can be large or run the other way; tested in HEK293T cells; further: on the % scale 0 is the no-effect control and ±100 the full control effect; nearly all actives have a fitted effect of over 45% in size; luciferase light after 4 h
# Cruzain inh noDet: blocks cruzain activity in detergent-free assay. P25779. purified cruzain, Z-FR-AMC fluorescence, no detergent. Potency, µM, for the others: max response, negative = inhibition, most hits filed as inhibitors. 2.3% of 200,000 active. AID 1476; active means well fitted curve in the direction sought with a large enough effect; inconclusive means small, poorly fitted or top-dose-only effect, or another doubt; inactive means no such curve, though single readings can be large; an effect the other way counts as inactive or inconclusive;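 further: plate controls were enzyme without inhibitor for no effect and buffer without enzyme for full effect; nearly all actives have a fitted effect of over 40% in size; top concentration of the series not given in the record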
#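 Detergent-free condition (0.00005% Triton X-100) in acetate buffer pH 5.5 with DTT. 1.5 nM enzyme and compound were pre-mixed 15 min, then 2 uM Z-FR-AMC substrate added; reaction progress from fluorescence change between first and third reads (60 s).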
# NS1 inh: influenza NS1 inhibition. S. cerevisiae slowed by influenza A NS1, growth recovery by OD600. Potency, µM (series often up to 46.1 µM), without a hit: at the top dose activity, positive = more growth. 0.4% of 270,000 active. AID 2326; further: actives are rising curves; nearly all actives have a fitted effect of over 50% in size
#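 Growth recovery, yeast-based: influenza A NS1 expressed in S. cerevisiae causes slow growth, and suppressors are detected by OD600. The parent strain without NS1 is used as positive control.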
# SARS PLpro yeast: inhibitors of SARS-CoV papain-like protease in yeast. S. cerevisiae expressing SARS-CoV PLpro, growth rescue; control for the full effect not named in the record. Potency, µM (series often up to 32.9 µM), for inactives: at the highest dose activity, positive = growth rescue. 0.19% of 330,000 active; further: 0% is about no effect; nearly all actives have a fitted effect of over 55% in size; growth read by luminescence after 48 h
# MARV entry inh: Marburg virus entry inhibition; Potency, µM (doses to about 37.8 µM), for inactives: at the top dose activity change, negative = inhibition, hits mostly inhibitors; AID 540276; Marburg virus pseudotyped entry inhibition, cell reporter; control for the full effect not named in the record; about a third of the inactives were read at about 46 µM; 1.8% of 300,000 active; active = well fitted inhibition curve with a large enough effect; inconclusive = small, poorly fitted or top-dose-only effect, or effect the other way; inactive = flat fitted curve, though single readings scatter; tested in HEK293 cells; about a fifth of its hits are not listed in these tables; further: on the % scale 0 is the no-effect control and ±100 the full control effect; luciferase read-out
# RE007 growth inh: less growth of the S. pombe RE007 Vpr strain; S. pombe RE007 Vpr strain, BacTiter-Glo ATP luminescence, 24 h; control for the full effect not named in the record; Potency, µM (titrated, usually from 92.2 µM), inactives show top-dose activity change, negative = less growth; 0.21% of 360,000 active; AID 651644; active = well fitted falling curve with a large enough effect; inconclusive = small, poorly fitted or top-dose-only effect; inactive = no such curve, though single readings can be large or run the other way;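 further: on the % scale 0 is the no-effect control and ±100 the full control effect; nearly all actives have a fitted effect of over 50% in size; the assay follows cell death caused by Vpr and the record does not say whether a fall means rescue or toxicity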
#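 Fission yeast strain RE007, carrying one chromosomally integrated HIV-1 vpr copy, was seeded at OD 0.01 in PMG+AL medium with 23 nL pinned compound. After 24 h at 30 °C and 99% humidity, viability was read by BacTiter-Glo luminescence.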
# Numbers without * were called inactive; ? = inconclusive; / = no result given; & = joins results of further samples; [ ] = remark or other dose. Unless noted, the call rests on the fitted dose curve; in most records, active means well fitted rising curve with a large enough effect; inconclusive means small, poorly fitted or top-dose-only effect; inactive means no such curve, though single readings can be large or run the other way. Potency means the concentration at half of the fitted maximal effect. This is a random part of the collection; about 4.8% have a hit in one of these screens.
SMILES,LASV entry inh,Cruzain inh Det,StopGo reporter,Cruzain inh noDet,NS1 inh,SARS PLpro yeast,MARV entry inh,RE007 growth inh
O=C(CN1CCOCC1)N1N=C(c2cccs2)CC1c1cccs1 (stereo not drawn),7%,/,-6%,/,-2%,0%,?,0%
CCc1nnc(NC(=O)CSc2nc(N)c(NC(=O)c3ccc(OC)cc3)c(=O)[nH]2)s1,1%,/,-1%,/,3%,4%,23%,1%
COc1cccc(CN2CCC(n3nccc3NC(=O)CCCc3ccccc3)CC2)c1O,/,/,-4%,/,4%,-9%,/,-2%
Cn1c(=O)c2c(nc(N3CCOCC3)n2Cc2ccccc2F)n(C)c1=O,-1%[46.1 µM],-2.1%,-9%,-4%,/,/,-3%[46.1 µM],/
CCCCOc1ccc(C(=O)NCC(=O)N2CCN(Cc3ccc4c(c3)OCO4)CC2)cc1,0%,/,0%,/,/,3%,-20%,6%
COc1ccc(CCNS(=O)(=O)c2ccc3c(c2)NC(=O)CS3)cc1OC,/,/,-8%,/,4%,-6%,/,-2%
Cn1c(CCNC(=O)c2ccco2)nc2cc(NC(=O)c3ccccc3)ccc21,?,/,6%,/,-7%,1%,?,-13%
CCO[C@@H]1OC(C(=O)N2CCN(Cc3ccc4c(c3)OCO4)CC2)=C[C@H](c2coc3ccccc3c2=O)[C@H]1CCCO,/,/,-29%,/,-6%,1%,/,1%
CCn1nnc(NC(=O)c2ccc(Br)o2)n1,7%,/,1%,/,5%,-23%,-2%[46.1 µM],-14%
O=C(COC(=O)c1nc(Cl)ccc1Cl)NC(=O)c1ccccc1,7%,/,-13%,/,-12%,0%,6%[46.1 µM],3%
CC(NC(=O)COC(=O)c1ccc([N+](=O)[O-])o1)c1ccccc1 (stereo not drawn),14%[46.1 µM],/,1%,/,/,-12%,11%[46.1 µM],-1%
COc1cc(C(=S)N2CCOCC2)cc(OC)c1OC(=O)Cc1ccc(F)cc1,-4%,-7.6%,-15%,?,-18%,7%,?,-10%
CCCc1c(O)nc(SCCN(CC)CC)[nH]c1=O,-26%,3.2%,2%,0%,11%,-2%,-2%,21%
COc1ccc(C)cc1S(=O)(=O)Nc1ccc(F)cc1,10%,-1.7%,76%[activator],-3%,-5%,?,?,-21%
CCCCOc1ccccc1C(=O)NNC(=S)NC(=O)c1ccccc1[N+](=O)[O-],-29%[46.1 µM],/,-18%,/,-93%,-4%,?,-10%
CC(NC(=O)c1cc(S(=O)(=O)N(C)C)ccc1Cl)c1ccc(-n2ccnc2)cc1 (stereo not drawn),15%[46.1 µM],/,-7%,/,7%,3%,13%[46.1 µM],1%
Cc1cnc(NC(=O)COc2ccccc2Cl)s1,1.8µM*,0.7%,10µM*,-6%,-42%,9%,2.3µM*,-1%
O=C(NC1(C(F)(F)F)C(=O)Nc2c1c(=O)[nH]c(=O)n2Cc1ccccc1)c1ccc(Cl)cc1 (stereo not drawn),11%,4.9%,-4%,-3%,7%,2%,15%,8%
CCCOc1ccc(N2C(=O)CC(N(Cc3ccco3)C(C)=O)C2=O)cc1 (stereo not drawn),/,/,-12%,/,2%,-1%,/,-10%
O=C1OCCN1c1ccccc1,8%[46.1 µM],/,-5%,/,/,/,?,0%
O=C(CCS(=O)(=O)c1ccccc1)Nc1ncc([N+](=O)[O-])s1,15%[46.1 µM],/,31%[activator],/,-25%,-10%,-7%[46.1 µM],-7%
Cc1nc2ccc(S(=O)(=O)NC(C(=O)N3CCN(c4cccc(Cl)c4)CC3)C(C)C)cc2s1 (stereo not drawn),?,-8.4%,0%,14%,/,/,?,/
CCOc1cc(N2CCOCC2)c(OCC)cc1NC(C)C(=O)N1CCN(CC)CC1 (stereo not drawn),-7%,/,-6%,/,/,-1%,-1%[46.1 µM],-15%
COc1ccc(NC(=O)Nc2sc(=S)n(C)c2C)cc1,11%,/,-2%,/,11%,-2%,2%[46.1 µM],2%
O=C(O)C1CC=CCC1C(=O)Nc1ccc(F)c(F)c1 (stereo not drawn),-9%,2.9%,10%,0%,2%,4%,-2%,-8%
Cc1ccc([N+](=O)[O-])cc1S(=O)(=O)N1CCNCC1,14%,/,-14%,/,5%,0%,23%[46.1 µM],-3%
c1ccc(Cn2c(SCc3nc4ccccc4s3)nnc2-c2ccco2)cc1,?,-16%,?,-27%,-38%,-9%,6%[46.1 µM],-13%
Cn1c(=O)c2cc3ccccc3nc2n(C)c1=O,14%,/,0%,/,4%,1%,-2%[46.1 µM],20%
Cn1c(=O)c2c(nc(SCC(=O)Nc3ccccc3F)n2Cc2ccccc2F)n(C)c1=O,9%[46.1 µM],-1.8%,0%,-2%,/,/,7%[46.1 µM],/
CC(C)Cc1nnc(NC(=O)CCC(=O)N2CCOCC2)s1,3%,0.9%,/,-7%,7%,-1%,4%,-8%
Cc1cc(C(F)(F)F)nc(SCc2ccc(C(=O)O)o2)n1,2%,-0.1%,-15%,-8%,-4%,4%,7%,-9%
COc1ccc(NS(=O)(=O)c2ccc3oc(=S)[nH]c3c2)cc1,/,/,5%,/,13%,1%,/,18%
O=C(c1ccccc1)N1CCCCC(Cl)C1=O (stereo not drawn),-12%,/,-18%,/,/,1%,9%,-20%
CC1CCN(C(=O)COC(=O)Cc2ccc(Br)cc2)CC1,-5%,/,2%,/,4%,0%,6%,-4%
N#CC1=C(N)Oc2c(c(=O)oc3ccccc23)C1c1ccc(OC(=O)N2CCOCC2)cc1 (stereo not drawn),22%,-29%,6%,7%,-111%,-19%,2%[46.1 µM],-5%
CCCNC(=O)C12CCC(C)(c3nc4cc(C)c(C)cc4nc31)C2(C)C (stereo not drawn),/,/,-20%,/,/,-18%,?,-11%
Cc1ccc(-n2c(C)cc3c2CCCC3=O)cc1,11%,-0.8%,/,-4%,-2%,-4%,-25%,-19%
CCCn1nnc(NC(=O)/C=C/c2ccc(C(C)C)cc2)n1,/,/,4%,/,1%,-1%,/,8%
CCC1NC(=S)N(C2CCCCC2)C1=O (stereo not drawn),26%,4.8%,7%,-14%,29%,4%,18%,-4%
COc1ccc(OC)c(C2C(C(=O)N3CCCCC3)=C(C)Nc3nc4ccccc4n32)c1 (stereo not drawn),13%[46.1 µM],-2.2%,-2%,-6%,/,/,-12%[46.1 µM],/
O=C(CN1C(=O)CCS(=O)(=O)c2ccccc21)Nc1ccc(Cl)cc1,-11%[46.1 µM],/,21%,/,15%,-4%,-16%[46.1 µM],3%
CCSc1nnc([C@H](C)NC(=O)OC(C)(C)C)o1,19%,0.9%,5%,6%,3%,-1%,30%,-1%
COc1ccccc1NC(=O)C1=C(C)Nc2nc(-c3ccccc3)nn2C1c1ccccn1 (stereo not drawn),-15%,-0.7%,-19%,26%,9%,2%,-3%,22%
CC(C)Cn1c(CNC(=O)c2ccccc2)nc2ccccc21,7%,-4.4%,-28%,-11%,-47%,11%,9%,-15%
O=C(c1ccc2snnc2c1)N1CCCC1,8%,2.4%,-11%,-8%,-1%,1%,?,-13%

# Given with tabs: part of the list above
compound	LASV entry inh	Cruzain inh Det	StopGo reporter	Cruzain inh noDet	NS1 inh	SARS PLpro yeast	MARV entry inh	RE007 growth inh
CC(C)Cn1c(CNC(=O)c2ccccc2)nc2ccccc21	7%	-4.4%	-28%	-11%	-47%	11%	9%	-15%
O=C(c1ccc2snnc2c1)N1CCCC1	8%	2.4%	-11%	-8%	-1%	1%	?	-13%

# The list continues:
SMILES,LASV entry inh,Cruzain inh Det,StopGo reporter,Cruzain inh noDet,NS1 inh,SARS PLpro yeast,MARV entry inh,RE007 growth inh
CC1(C)C(=O)N(CC(=O)Nc2ccc(Br)cc2F)c2ccccc21,4%[46.1 µM],-5.4%,-22%,-2%,/,/,/,/
CCOC(=O)c1nnn(-c2nonc2N)c1COc1cc(C)c(Cl)c(C)c1,-12%,-9.3%,?,25%,-52%,-1%,?,7%
COc1ccc2c(CNCCc3ccco3)c(C(=O)O)n(Cc3ccc(C)cc3)c2c1,-3%[46.1 µM],-1.7%,16%,1%,/,/,/,/
Cc1nc(-c2cccnc2)sc1C(=O)Nc1ccc(C(F)(F)F)cc1,11%,-7.4%,?,15%,-5%,-17%,7%,-21%
CCOc1cc(N2CCOCC2)c(OCC)cc1NC(=O)COC(=O)c1ccc(OC)c([N+](=O)[O-])c1,5%,/,-27%,/,/,/,19%,-7%
O=C(c1cc(S(=O)(=O)N2CCOCC2)ccc1F)N(Cc1nnc(-c2ccccc2Cl)o1)C1CC1,0%,/,-23%,/,/,-3%,0%,-16%
Nc1cc(OC(=O)c2ccc(F)cc2)nn1S(=O)(=O)c1ccccc1,1%,/,17%,/,7%,0%,-3%[46.1 µM],-3%
Fc1ccc(Nc2nc(SCc3ccc(Cl)cc3)nc3ccccc23)cc1,?,-0.4%,-10%,?,/,/,/,/
N#C/C(=C(/O)c1cccs1)c1nc2ccccc2[nH]1,/,/,-3%,/,0%,-1%,/,-22%
COc1ccc(S(=O)(=O)N2CCN(CC(=O)Nc3cc(C(F)(F)F)ccc3Cl)CC2)cc1,?,-1.5%,0%,0%,3%,-6%,?,0%
COC(=O)CCCC1=CC2=CC(=O)C(C)(OC(=O)c3cccs3)C(=O)C2=CN1c1cccc(C#N)c1 (stereo not drawn),/,/,-18%,/,3%,0%,/,4%
CC(=O)NC1(C(F)(F)F)N=C2SCCN2C1=O (stereo not drawn),29%,7.5%,23%,4%,1%,7%,?,5%
CN1CCN(C(=O)c2ccc3c(c2)N(Cc2ccc(F)cc2)C(=O)c2ccccc2S3=O)CC1 (stereo not drawn),3%[46.1 µM],1.2%,-23%&-13%,-4%,-6%,6%,26%[46.1 µM],-3%
CC1CCCCC1NC(=O)c1cncc(Br)c1 (stereo not drawn),12%,0.0%,-9%,-2%,-6%,5%,22%,-5%
CCc1ccccc1NC(=O)CSc1nc2n[nH]c(C)c2c(=N)n1-c1ccc(OC)cc1,-22%,-5.3%,?,30%,9%,21%,?,12%
CC(N=Cc1c(O)[nH]c(=O)[nH]c1=O)c1ccccc1 (stereo not drawn),-8%,2.2%,0%,-6%,10µM*,-7%,-21%,0%
